Screens deposited in PubChem BioAssay by National Center for Advancing Translational Sciences (NCATS).
Rango complex inh – Rango-importin beta binding inhibition; Rango CFP/YFP FRET sensor + importin beta, 45 min; Potency, µM (titrated, usually from 92.2 µM), for inactives: at the highest dose inhibition of complex formation; 340,000 tested, 0.031% active; active = rising FRET ratio curve, often small or poorly fitted; inconclusive = mostly compound fluorescence or quenching in the first reads; inactive = flat curves in all reads;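 note: potency is the fitted concentration of half-maximal effect; 0% = DMSO wells and 100% = buffer wells lacking importin beta; nearly all actives have a fitted effect of over 15% in size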
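FRET biosensor Rango (snurportin 1 IBB between N-terminal EYFP and C-terminal Cerulean), 50 nM in PBS/1 mM DTT/0.02% Tween-20/0.1% BSA, preincubated 5 min RT with compound; 0.125 microM importin beta added, 45 min RT, CFP/YFP FRET ratio read.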
Rango release inh – inhibitors of RanGTP-induced Rango-importin beta complex dissociation; O95149+P62826; Potency, µM (titrated, usually from 46.1 µM), for inactives: top-dose activity change, negative = inhibition; AID 540253; 340,000 tested, 0.071% active; Biochemical FRET Rango-importin beta, RanGTP-induced dissociation; active means falling FRET ratio curve, often poorly fitted, with flat reads before Ran was added; inconclusive means other falling curves, or compound fluorescence or quenching; inactive means flat or rising ratio curve;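 note: potency is the fitted concentration of half-maximal effect; % of control where 0% means no effect; nearly all actives have a fitted effect of over 45% in size; -100% = wells without RanGTP and RCC1; the record marks most hits as doubtful in a second field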
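Rango FRET biosensor (snurportin-1 IBB flanked by N-terminal EYFP and C-terminal CFP10) at 0.1 uM, with 0.25 uM importin beta in PBS, 1mM DTT, 0.02% Tween-20, 0.1% BSA. 0.6 uM Ran, 2mM GTP and 0.2 uM RCC1 were then added for 45 min at room temperature. Inhibition read as loss of FRET rise.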
miR-21 FLuc – raises the signal of a miR-21 reporter; HeLa miR-21 FLuc reporter, luciferase, 48 h; Potency, µM (doses to about 38.3 µM), inactives show top-dose reporter change, positive = more light; 340,000 tested, under 10 active; AID 2288; active = well fitted rising curve with a large enough effect; inconclusive = small, poorly fitted or top-dose-only effect; inactive = no such curve, though single readings can be large or run the other way;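 note: % of control where 0% means no effect; miR-21 action dims this reporter so a rising signal means less miR-21 action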
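Using DMEM plus 10% FBS, HeLa miR-21-FLuc cells are incubated with test compounds (final up to about 40uM) for 48 hours; firefly luciferase signal is then imaged following reagent-mediated lysis.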
GLA inh pH 4.5 – blocks human alpha-galactosidase A at pH 4.5. P06280. activity change, negative = inhibition, % at 105 µM. AID 1467. purified enzyme, 4-MU-alpha-Gal fluorescence, pH 4.5. 230,000 tested, under 10 active; inconclusive = small, poorly fitted or top-dose-only inhibition, or a rising curve; inactive = flat fitted curve, though single readings scatter; no compound was filed as active;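 note: 0% = full activity with enzyme and -100% = basal without enzyme; dose as in the result columns while the protocol names 77 µM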
Target sequence (P06280 whole entry, looked up): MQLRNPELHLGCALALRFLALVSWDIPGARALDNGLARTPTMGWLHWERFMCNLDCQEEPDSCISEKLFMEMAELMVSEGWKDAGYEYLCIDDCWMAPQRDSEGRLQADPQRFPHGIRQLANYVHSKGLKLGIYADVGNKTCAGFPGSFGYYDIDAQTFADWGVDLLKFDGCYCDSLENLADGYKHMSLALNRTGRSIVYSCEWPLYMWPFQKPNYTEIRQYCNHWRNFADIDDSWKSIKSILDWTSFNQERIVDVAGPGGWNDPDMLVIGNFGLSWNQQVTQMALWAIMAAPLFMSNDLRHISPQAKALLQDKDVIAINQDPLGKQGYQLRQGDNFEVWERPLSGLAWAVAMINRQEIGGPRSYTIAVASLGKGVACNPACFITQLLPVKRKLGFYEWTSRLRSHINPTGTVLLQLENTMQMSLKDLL
Starred values were filed as active, the others as inactive; ? = inconclusive; . = not tested or not shown; & = joins results of further samples.

SMILES	Rango complex inh	Rango release inh	miR-21 FLuc	GLA inh pH 4.5
Cc1ccc(S(=O)(=O)N2Cc3ccccc3-n3nncc3C2)cc1	0.7%	23%	.	.
Cc1c2ccncc2c(C)c2c1[nH]c1ccccc12	?	?	?	-7&-1&-5
COc1cc(/C=C2\C[C@H]3[C@@H]4CC=C5C[C@@H](N6CCCC6)CC[C@]5(C)[C@H]4CC[C@]3(C)[C@H]2O)cc(OC)c1OC	0.6%	-19%	.	.
COc1cc(C)c(CN2CCN(c3ccccc3)CC2)cc1C	3.5%	8%	-4%	-11
COC(=O)C1=C(c2cc3ccccc3o2)C[C@@H]2CC[C@H]1N2C(=O)N1CCC(C)CC1	4.9%	13%	.	.
CN(CCc1nnc(N)s1)[N+](=O)[O-]	?	9%	-1%	10
COC(=O)C1=C(c2ccccc2)C[C@@H]2CC[C@H]1N2C(=O)NCc1ccccc1	-0.8%	3%	.	.
CCNc1cc(N2CCN(C)CC2)ccc1[N+](=O)[O-]	-0.7%	11%	-4%	2
COCCOC(=O)C1=C(N)OC(C)=C(C(=O)OC)C12C(=O)Nc1ccccc12 (stereo not given)	-1.1%	14%	-3%	-15
Cn1cc(C(=O)c2ccccc2)c2ccccc21	3.5%	-5%	-16%	-1
CCC(C)n1c(O)c(/C=N/Nc2nc3c(c(=O)n(C)c(=O)n3C)n2C)c(=O)[nH]c1=S (stereo not given)	?	?	14%	-6
CCC1(CCCC(=O)c2ccc(F)cc2)C(=O)NC(=S)NC1=O	-3.1%	1%	-5%	-3
CC(=O)OC1CC2(O)C3CCC4CC(O)CCC4(C)C3CCC2(C)C1C1=CC(=O)OC1 (stereo not given)	4.1%	7%	.	.
Cc1ccc(C(=O)N[C@@H](C)CN2C3=NC[C@H](Cc4ccccc4)N3C[C@H]2Cc2ccc(O)cc2)cc1Br	0.0%	0%	?	-3
COC(=O)C1=C(c2ccc(OC)c(OC)c2)C[C@@H]2CC[C@H]1N2C(=O)NC1Cc2ccccc2C1	0.6%	28%	.	.

Ordered by SMILES length (smallest number first): some entries from above.
SMILES	Rango complex inh	Rango release inh	miR-21 FLuc	GLA inh pH 4.5
Cn1cc(C(=O)c2ccccc2)c2ccccc21	3.5%	-5%	-16%	-1
CCNc1cc(N2CCN(C)CC2)ccc1[N+](=O)[O-]	-0.7%	11%	-4%	2
Cc1ccc(C(=O)N[C@@H](C)CN2C3=NC[C@H](Cc4ccccc4)N3C[C@H]2Cc2ccc(O)cc2)cc1Br	0.0%	0%	?	-3

Further results.
SMILES	Rango complex inh	Rango release inh	miR-21 FLuc	GLA inh pH 4.5
COCCOC(=O)c1c(N)n(Cc2ccco2)c2nc3ccccc3nc12	?	?	0%	.
O=[N+]([O-])c1cc([As](=O)(O)c2ccc(O)c([N+](=O)[O-])c2)ccc1O	0.4%	14%	-1%	0
O=C(c1cc(C(=O)NCc2ccccc2)c(=O)n(Cc2ccccc2)c1)c1cc(Cl)ccc1O	-1.4%	-20%	-3%	-17
CCOC(=O)c1ccc2c(c1)n(Cc1ccccc1)c(C)[n+]2CC	-0.3%	1%	9%	-10
C=CCN1CC[C@]23c4c5ccc(O)c4OC2C(O)CC[C@@]3(O)[C@H]1C5 (stereo not given in full)	-3.6%	-16%	.	.
CC1CCC(N2CCN(C(=O)COc3ccccc3)CC2)CC1 (stereo not given)	5.1%	4%	-1%	.
Cc1nn(Cc2ccccc2Cl)c(Cl)c1C(=O)OCC(=O)NCc1ccco1	0.1%	-1%	2%	-2
C=CCNC(=S)/N=C/c1c(O)[nH]c(=O)[nH]c1=O	0.2%	-1%	-1%	6
Cc1nn(CC(C)C)c(Cl)c1C(=O)O	-0.1%	-9%	0%	-6
OCC#CC[N+]1(CC#Cc2ccccc2)CCCC1	0.5%	14%	1%	2
CN1CC=C2C(C#N)=C(N)C(C#N)(C#N)C(c3ccncc3)C2C1 (stereo not given)	?	?	-1%	4
CN(C)[C@@H]1C(=O)C(C(N)=O)=C(O)[C@@]2(O)C(=O)C3=C(O)c4c(O)cccc4[C@@](C)(O)C3[C@H](O)C12 (stereo not given in full)	?	?	.	.
O=C(C1CCCO1)N1CCC2(CC1)OCCO2 (stereo not given)	0.5%	15%	-4%	1
CC/C(=N\Nc1ccccc1)c1c(O)[nH]c(=O)[nH]c1=O	-0.2%	6%	14%	-3
CC(C)CN1CCN(Cc2cccc3c2OCO3)CC1CCO (stereo not given)	0.3%	-4%	-10%	10
OC(Cn1c2ccccc2c2ccccc21)C[n+]1ccccc1 (stereo not given)	2.2%	6%	-13%	2
COC(=O)C1=C(c2ccc(-c3ccccc3)c(F)c2)C[C@@H]2CC[C@H]1N2C(=O)NC(C)C	4.3%	-1%	.	.
O=C1NC(=O)N(c2ccccc2)C(=O)/C1=C\C=C\c1ccccc1	2.6%	-1%	0%	2
O=[N+]([O-])c1cc(O)c(O)c([N+](=O)[O-])c1	-3.2%	5%	.	-8&0&-4
O=C(C[N+]12CCC(CC1)C(CO)C2)c1ccc([N+](=O)[O-])cc1 (stereo not given)	-2.0%	-8%	22%	2
Cc1ccsc1C(=O)C1CCCN(Cc2sc(N(C)C)nc2Cl)C1 (stereo not given)	-0.8%	8%	4%	-2
COC(=O)C1=C(c2cccc(OCc3ccccc3)c2)C[C@@H]2CC[C@H]1N2C(=O)NCc1ccc(F)cc1	1.2%	-11%	.	.
CCN(CC)C(=O)c1ccc(NC(=O)C2=C(C)OCCS2)cc1	0.4%	-5%	-1%	.
Cc1cc(OCC(=O)NCc2ccncc2)c2c3c(c(=O)oc2c1)CCCC3	0.3%	14%	1%	.
CC(=O)NC(Cc1ccc(N(CCCl)CCCl)cc1)C(=O)NC(CC(C)C)C(=O)O (stereo not given)	1.5%	-11%	1%	6
CCCCCCn1c(O)c(C=NCCN2CCCCC2)c(=O)[nH]c1=O	-2.1%	-8%	1%	4
O=C1NC(=O)N(CCc2ccc(F)cc2)C(=O)/C1=C/C=C/c1ccccc1	1.1%	-5%	-2%	-2
CCOC(=O)C1C(=O)N(C)C2(C)CC1c1cc(OC)ccc1O2 (stereo not given)	-2.8%	-4%	1%	9
Fc1ccc(CCNCc2ccc(Br)cc2)cc1	-2.3%	0%	-4%	-2
O=C(CN1CCN(c2ccccc2F)CC1)Nc1cccnc1Cl	-3.6%	9%	-2%	-1

Gathered by group: the entries above containing a COOH group
SMILES	Rango complex inh	Rango release inh	miR-21 FLuc	GLA inh pH 4.5
Cc1nn(CC(C)C)c(Cl)c1C(=O)O	-0.1%	-9%	0%	-6
CC(=O)NC(Cc1ccc(N(CCCl)CCCl)cc1)C(=O)NC(CC(C)C)C(=O)O (stereo not given)	1.5%	-11%	1%	6

The list continues.
SMILES	Rango complex inh	Rango release inh	miR-21 FLuc	GLA inh pH 4.5
O=C(Nc1ccccc1Cl)OC1CN2CCC1CC2 (stereo not given)	?	-19%	-21%	2
CC(N=Cc1c(O)[nH]c(=O)[nH]c1=O)c1ccccc1 (stereo not given)	0.9%	-14%	1%	-1
N#CC1=C(N)Oc2c(c(=O)oc3ccccc23)C1c1ccc(OC(=O)N2CCOCC2)cc1 (stereo not given)	1.4%	-2%	-9%	?
CCC(=NCCN1CCCCC1)c1c(O)n(C)c(=O)n(C)c1=O	-4.5%	35%	-8%	-2
Cc1cc(C)cc(-n2c(O)c(C=Nc3ccc(N4CCOCC4)cc3)c(=O)[nH]c2=S)c1	?	?	-3%	-5
Cc1c(C(=O)C(=O)N2CCC3(CC2)OCCO3)c2ccccc2n1C	1.1%	-3%	-1%	3
CS(=O)(=O)NNP(=O)(NNS(C)(=O)=O)NC(=O)c1ccccc1	-3.1%	-5%	0%	-14
COc1cc(C=C2C(=O)NC(=O)NC2=O)cc(OC)c1OC	-1.7%	0%	2%	8
C[C@@H]1O[C@@H](O[C@@H]2C=C3CC[C@@H]4C(CC[C@]5(C)[C@@H](c6ccc(=O)oc6)CC[C@]45O)[C@@]3(C)CC2)[C@H](O)[C@H](O)[C@H]1O (stereo not given in full)	0.6%	23%	.	.
COc1ccccc1CN1CCN(C(=O)COc2ccccc2)CC1	0.9%	?	-6%	-6
COc1ccc(-c2cc(=O)c3c(OC)c(OC)c(OC)cc3o2)cc1	1.2%	-2%	-2%	6
COc1ccccc1N1CCNCC1	-0.4%	19%	-1%	-1&-5&0
CCOC(=O)C1=C(N)OC2=C(C(=O)CCC2)C12C(=O)N(CC(N)=O)c1ccccc12 (stereo not given)	0.4%	4%	-2%	-6
NCCc1c[nH]c2ccc(OCc3ccccc3)cc12	1.2%	1%	2%	2
COc1cccc(N2C(=O)NC(=O)C3(Cc4cc(C)ccc4N(C)C3)C2=O)c1 (stereo not given)	-4.9%	-16%	-14%	5
COc1ccc(Cc2nccc3cc(OC)c(OC)cc23)cc1OC	4.4%	-11%	11%	-2&2&4&-3&3
c1ccc(C(OCCN2CCN(c3ncccn3)CC2)c2ccccc2)cc1	-3.7%	0%	.	.
O=c1c2ccccc2nc(-c2ccc(Cl)cc2Cl)n1-c1ccncc1	-0.2%	-1%	3%	0
NNP(=O)(CC(=O)c1ccccc1)c1ccccc1 (stereo not given)	2.8%	-20%	2%	-6
CC1CCN(CC(=O)c2ccccc2Cl)CC1	4.1%	11%	-25%	2
Cc1cc(/C=C2\C(=O)NC(=O)N(c3ccc(Cl)cc3)C2=O)c(C)n1-c1cccc(C(=O)O)c1	?	-27%	2%	.
O=C(OCC(=O)c1ccc([N+](=O)[O-])cc1)/C(=C/c1ccc(Cl)cc1)NC(=O)c1ccccc1	-0.5%	-17%	4%	-5
Nc1ccc(Cl)c(Cl)c1	-2.9%	13%	.	.
CCCCn1c(O)c(C(CC)=NCCN2CCCCC2)c(=O)[nH]c1=O	?	-14%	-3%	?
COc1ccccc1N=C1SCCCN1C	-5.4%	1%	-2%	3
N=C1c2ccccc2CN1NC(=O)c1ccccc1	-3.5%	5%	-16%	-5
O=C(N/N=C/c1c(O)n(Cc2ccco2)c(=O)[nH]c1=O)c1ccccc1O	-2.4%	2%	-9%	0
O=c1oc2ccccc2c(O)c1C(c1ccc([N+](=O)[O-])cc1)c1c(O)c2ccccc2oc1=O	1.7%	-13%	-2%	-12
COC(=O)C1=C(c2ccc3ccccc3c2)C[C@@H]2CC[C@H]1N2C(=O)N1CCC(C)CC1	-6.0%	-19%	.	.
CN1CCCN(C(=O)COc2cccc(C(F)(F)F)c2)CC1	-4.2%	-11%	-5%	.
O=c1[nH]c(=O)n(Cc2ccco2)c(O)c1C=NCc1ccco1	-2.0%	-11%	-1%	4
Cc1ccc(-c2nc3ccccc3c(=O)n2-c2ccc(Br)cn2)cc1	-0.1%	3%	-5%	-22
COc1ccc(-c2cc(=Nc3ccccc3)c3cc(C)ccc3o2)cc1	2.1%	-8%	-42%	-4
COC(=O)C1=C(c2ccc(F)cc2F)C[C@@H]2CC[C@H]1N2C(=O)NCc1ccc2c(c1)OCO2	-0.6%	-3%	.	.
CN1C(=O)/C(=C/c2ccc(N3CCCCCC3)o2)C(=O)NC1=S	11%	0%	-65%	-10
CC(C)[C@H]1C(=O)O[C@H](C(C)C)C(=O)N(C)[C@@H](C(C)C)C(=O)O[C@H](C(C)C)C(=O)N(C)[C@@H](C(C)C)C(=O)O[C@H](C(C)C)C(=O)N1C	2.0%	?	?	-27
CCN(CC)C(=O)c1ccc(NC(=O)Nc2ccccc2F)cc1	-0.5%	14%	14%	-4
Cc1cc(OCC(=O)N2CCC(C(=O)O)CC2)c2c3c(c(=O)oc2c1)CCCC3	-0.8%	9%	-1%	.
CC(C)(C)C(=O)NC1CCSC1=O (stereo not given)	.	.	-5%	14
O=[N+]([O-])/C(Cl)=C1\NCCN1Cc1ccc(Cl)nc1	-1.9%	11%	1%	5
CC(C)N(CCC(C(N)=O)(c1ccccc1)c1ccccn1)C(C)C (stereo not given)	?	-1%&-27%	-3%	0&0&-2&-8
COc1ccc2c(c1)C13CCCC[C@@H]1C(C2)N(C)CC3 (stereo not given in full)	-1.1%	?	-3%	10&-1

The list is partial. The share of hits here may be higher or lower than overall.
